Bioassay records: PubChem, ICCB-Longwood Screening Facility, Harvard Medical School
Mtb MbtI inh: blocks the Mycobacterium tuberculosis siderophore enzyme MbtI | P9WFX0 | purified MbtI enzyme, fluorescence intensity read-out | inhibition, %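 (about 17 µg/mL by stock and volumes)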 | actives 0.89% (n = 100,000);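 active = above 50% in both replicates, above 80% if mildly self-fluorescent; inactive = the rest, strongly fluorescent compounds included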;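 also: 0% = mean of negative and 100% = mean of positive controls; one replicate is shown; some compounds called inactive have numbers as strong as hits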
Target sequence (P9WFX0 whole entry, looked up): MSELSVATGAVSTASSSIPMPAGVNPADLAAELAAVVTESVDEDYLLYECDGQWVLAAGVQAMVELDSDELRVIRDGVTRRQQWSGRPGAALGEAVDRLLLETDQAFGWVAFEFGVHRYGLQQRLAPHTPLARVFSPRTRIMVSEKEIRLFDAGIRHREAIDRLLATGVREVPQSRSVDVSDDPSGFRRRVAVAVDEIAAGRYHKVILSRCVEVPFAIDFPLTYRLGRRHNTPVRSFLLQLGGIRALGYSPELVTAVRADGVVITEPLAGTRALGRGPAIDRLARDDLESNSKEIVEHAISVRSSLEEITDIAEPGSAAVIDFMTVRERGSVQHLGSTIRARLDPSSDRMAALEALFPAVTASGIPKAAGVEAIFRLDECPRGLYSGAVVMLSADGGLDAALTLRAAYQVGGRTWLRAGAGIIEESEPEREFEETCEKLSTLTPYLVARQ
Mtb MenB inh: blocks the Mycobacterium tuberculosis MenB enzyme. P9WNP5. MenB enzyme assay, absorbance read-out; some hits fall short of the stated cut. inhibition, %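 (about 12 µg/mL by stock and volumes)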. actives 0.43% (n = 100,000). AID 540299;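 active = mean of two replicates above 30%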;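 also: 0% = no compound and 100% = wells with inactive enzyme; the first replicate is given; strong numbers were not always called active; inactives centre near -10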
PV pol inh: inhibitors of poliovirus RNA polymerase binding and polymerization; poliovirus polymerase elongation, fluorescence polarization; hits give low values; % elongation, % (compound at 16.7 µg/mL); P03300; actives 0.66% (n = 150,000); in the data active = % elongation below about 90%; also: some results filed as inactive read as strong as hits
Target sequence (P03300 1749-2209 limits assumed): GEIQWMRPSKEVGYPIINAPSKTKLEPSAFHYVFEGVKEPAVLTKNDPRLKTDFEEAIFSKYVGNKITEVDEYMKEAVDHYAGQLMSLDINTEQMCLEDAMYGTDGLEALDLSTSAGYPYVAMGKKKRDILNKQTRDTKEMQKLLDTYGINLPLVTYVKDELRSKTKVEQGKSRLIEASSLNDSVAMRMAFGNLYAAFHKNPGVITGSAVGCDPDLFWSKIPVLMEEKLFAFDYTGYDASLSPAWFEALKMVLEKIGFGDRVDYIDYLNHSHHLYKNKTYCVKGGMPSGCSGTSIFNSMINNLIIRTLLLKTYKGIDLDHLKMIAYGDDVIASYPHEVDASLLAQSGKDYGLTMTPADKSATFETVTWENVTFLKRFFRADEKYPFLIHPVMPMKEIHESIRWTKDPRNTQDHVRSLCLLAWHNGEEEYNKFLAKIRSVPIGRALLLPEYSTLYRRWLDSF
PV pol inh intensity: second read-out of PV pol inh, no call of its own (marks repeat the call); % elongation; measured here: total intensity read-out; formula for this scale not given here;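 total fluorescence in place of polarization; lower means less elongation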
The depositor's hits bear a star; · = not tested or not shown; & = joins results of further samples. Compounds were not picked by outcome; overall some 1.8% were active at least once.

no.	smiles	Mtb MbtI inh	Mtb MenB inh	PV pol inh	PV pol inh intensity
1	CC(C)C(C)(C#N)NC(=O)c1cccnc1Oc1ccc(Cl)cc1 (stereo not drawn)	·	0	104	113
2	CCn1c(CSc2nc3ccccc3s2)nnc1SCC(=O)C(C)(C)C	-3	12	100	111
3	CC1(C)CC(=O)C(C=Nc2ccccc2)=C(O)C1	7	8	104	104
4	Cc1ccc(-n2ncc(C(=O)NCCN3CCCCC3)c2C2CCN(C(=O)OC(C)(C)C)CC2)cc1	-20	-19	102	103
5	NC(=O)c1ccccn1	-3	5	102	95
6	CCN1C[C@@]2(COC)C3[C@@H](OC)[C@H]4[C@@H]1[C@]3(C(OC)C[C@H]2O)C1C[C@@]2(O)[C@H](OC(=O)c3ccccc3)C1[C@]4(OC(C)=O)[C@@H](O)[C@@H]2OC (stereo partly drawn)	-12	6	101	102
7	CN=c1scc(C)n1/N=C/C1CCCCC1	3	-2	104	99
8	Cc1ccc(S(=O)(=O)NC(=O)N(C)C2CCCCC2)cc1	2	-6	103	93
9	O=C(NCC12CC3CC(CC(C3)C1)C2)c1cc(-c2ccccc2O)no1	-5	1	100	102
10	c1coc(CNc2nc[n+]3c4c2ncn4CC3)c1	-3	-6&-6	103&100	110&99
11	CN1CCC(N(C)C(=O)c2cc(=O)c3ccccc3o2)CC1	-7	-5	108	103
12	CSC(=O)CNC1(Cc2ccc(O)cc2)CCCCC1	-1	17	101	102
13	Cc1nnc(NCc2ccc(F)cc2)c2c1nnn2Cc1ccc(F)cc1	-8	15	104	101
14	O=c1oc(-c2cccs2)nn1CN1CCN(Cc2cccs2)CC1	-32	-11	102	107
15	CCN(CC)C(=O)CSc1nc2cccnc2n1-c1ccccc1OC	8	-49	104	102
16	O=C(NCCO)N1c2ccccc2Sc2ccccc21	-18	-20	102	100
17	Cc1ccc(C(=O)CC(NCCN2CCOCC2)C(=O)O)cc1 (stereo not drawn)	·	33*	103	109
18	O=S(=O)(c1ccc(S(=O)(=O)N2CCC3(CC2)OCCO3)cc1)N1CCCC1	-9	11	100	102
19	COc1cc(Cn2c(N)c(C#N)c3nc4ccccc4nc32)cc(OC)c1OC	-31	-19	·	·
20	Oc1ccccc1C1=Nc2ccccc2N=C(c2ccco2)C1	3	23	94	110

no.	smiles	Mtb MbtI inh	Mtb MenB inh	PV pol inh	PV pol inh intensity
21	COc1ccc(C2C(C#N)=C(N)OC3NN=C(C)C32)cc1COc1cccc(Cl)c1 (stereo not drawn)	·	4	104	109
22	O=C(c1ccccc1)c1cccc(N=Cc2c(O)[nH]c(=O)[nH]c2=O)c1	-4	8	100	105
23	C=CCn1c(=S)[nH]c2cc(OCC)c(OCC)cc2c1=O	1	-9	101	102
24	O=C(CCSc1nc(-c2ccco2)cc(C(F)(F)F)n1)NCc1ccncc1	-1	-18	104	107
25	OC(CCN1CCOCC1)(c1ccc(Cl)cc1)C1CCCCC1 (stereo not drawn)	1	-11	104	103
26	NC(=O)Cn1nnc(-c2ccccc2)n1	·	-3	103	105
27	CCCCCCCCCCCCCCCCOCC(COP(=O)([O-])OCC[N+](C)(C)C)OC (stereo not drawn)	-21	4	100&102	105&103
28	CSc1c(C#N)c(-c2cccs2)nn1C(=O)C(C)(C)C	-7	-8	104	107
29	Cc1ccc2nc(NC(=O)C(C)C)sc2c1	4	10	102	103
30	Cc1ccccc1N1C(=O)CC(SC2=NCCS2)C1=O (stereo not drawn)	-5	-26	103	104
31	O=C(CN(Cc1ccccc1F)C(=O)c1ccco1)NCc1ccc(F)cc1	-8	-37	105	100
32	CN1C(C(=O)Nc2ccccn2)=C(O)c2ccccc2S1(=O)=O	0&3&-14	-4&-8&1	99&99&99&98	103&100&99&99
33	COc1ccccc1NC(=O)c1c(C)nc(SCc2ccccc2)c(C#N)c1-c1ccc(C)o1	35	-32	110	107
34	O=C(O)c1ccc(N=Cc2cn(-c3ccccc3)nc2-c2cccs2)cc1	5	-8	108	109
35	COc1ccc(CNc2nc(NCc3ccc(OC)cc3)n(S(C)(=O)=O)n2)cc1	-13	-1	100	101
36	CCCN1C(=O)c2ccccc2NC1c1ccc(Br)cc1 (stereo not drawn)	115	3	101	100
37	CCN(CC)S(=O)(=O)c1ccc(C(=O)OCC(=O)c2ccc3c(c2)OCCO3)cc1	7	-10	102	102
38	Cc1ccc(C(=O)NC(C)C(c2cccs2)N2CCCC2)s1 (stereo not drawn)	-3	·	105	107
39	Cn1c(=S)[nH]c2cc(C(=O)NC3CCCCCC3)ccc2c1=O	9	-10	106	105
40	COc1ccc(/C=C(\C#N)S(=O)(=O)c2ccccc2)cc1CSCc1ccco1	30	-23	100	102

no.	smiles	Mtb MbtI inh	Mtb MenB inh	PV pol inh	PV pol inh intensity
41	CCCSC1=N/C(=C/c2cccs2)C(=O)N1c1ccc(F)c(Cl)c1	-1	-2	103	96
42	O=c1c2c(nc3cc(-c4ccco4)[nH]n13)CCCC2	89	33*	104	102
43	CC(C)NC(=S)N/N=C/c1ccco1	19	0	98	100
44	NC(=S)c1cccnc1	10	2	104	104
45	N=C1C(c2nc3ccccc3s2)=C(O)CN1c1ccc(S(N)(=O)=O)cc1	-308	4	100	103
46	O=c1[nH]c2c(c(=O)[nH]1)CCC2	2	-18	103	104
47	O=C(CSc1ccccn1)c1ccc(Cl)cc1	-3	9	97	108
48	CCC(=O)NC1(C(F)(F)F)N=C(c2ccccc2)N(C2CCCC2)C1=O (stereo not drawn)	-4	14	98	101
49	Cc1ccsc1C=Nc1ccc(Nc2ccccc2)cc1	·	11	103	107
50	COc1ccccc1NS(=O)(=O)c1ccc2c(c1)CCN2C(=O)CCC(=O)O	0	0	101	97
51	COC(=O)c1c2c(n3cc4ccccc4cc13)C(=O)c1ccccc1C2=O	6	6	104	113
52	Cc1ccc2nc(-c3ccc(N4C(=O)C=CC4=O)cc3)sc2c1	-99	·	103	109
53	O=C(Cn1ncn2nc(-c3ccco3)cc2c1=O)NCc1ccccc1	7	-8	104	108
54	CCc1cc2c(NCCN3CCCCC3)ncnc2s1	2	-33	104	102
55	N#Cc1cccc(NC(=O)COC(=O)C2=NNC(=O)CC2)c1	48	-14	103	108
56	CC1CCc2cc(F)ccc2N1C(=O)c1cccs1 (stereo not drawn)	-4	-30	102	102
57	Oc1ccccc1C1NN=C(c2ccccc2)S1 (stereo not drawn)	71	-37	102	103
58	Cc1ccc(Cn2c(SC(C)C(N)=O)nc3ccccc3c2=O)cc1 (stereo not drawn)	2	-17	102	103
59	NC(=O)CSc1nnc2scc(-c3ccc(Cl)cc3)n12	12	3	101	101
60	CC1CN(C(=O)C(C)Sc2nc(-c3ccccc3)cc(C(F)(F)F)n2)CC(C)O1 (stereo not drawn)	-17	-14	100	100

Complete entries, quoted from the list. Order of screens: Mtb MbtI inh | Mtb MenB inh | PV pol inh | PV pol inh intensity
Profile of Cc1ccc2nc(-c3ccc(N4C(=O)C=CC4=O)cc3)sc2c1 → -99 | · | 103 | 109
Profile of COC(=O)c1c2c(n3cc4ccccc4cc13)C(=O)c1ccccc1C2=O → 6 | 6 | 104 | 113
Profile of Cc1ccc(Cn2c(SC(C)C(N)=O)nc3ccccc3c2=O)cc1 (stereo not drawn) → 2 | -17 | 102 | 103
Profile of O=c1[nH]c2c(c(=O)[nH]1)CCC2 → 2 | -18 | 103 | 104
Profile of CCCSC1=N/C(=C/c2cccs2)C(=O)N1c1ccc(F)c(Cl)c1 → -1 | -2 | 103 | 96

Compounds from the list above containing a tert-butyl group, in the order listed:
no.	smiles	Mtb MbtI inh	Mtb MenB inh	PV pol inh	PV pol inh intensity
2	CCn1c(CSc2nc3ccccc3s2)nnc1SCC(=O)C(C)(C)C	-3	12	100	111
4	Cc1ccc(-n2ncc(C(=O)NCCN3CCCCC3)c2C2CCN(C(=O)OC(C)(C)C)CC2)cc1	-20	-19	102	103
28	CSc1c(C#N)c(-c2cccs2)nn1C(=O)C(C)(C)C	-7	-8	104	107

Of the compounds above, eight have a thiophene ring, fused or not.
no.	smiles	Mtb MbtI inh	Mtb MenB inh	PV pol inh	PV pol inh intensity
14	O=c1oc(-c2cccs2)nn1CN1CCN(Cc2cccs2)CC1	-32	-11	102	107
28	CSc1c(C#N)c(-c2cccs2)nn1C(=O)C(C)(C)C	-7	-8	104	107
34	O=C(O)c1ccc(N=Cc2cn(-c3ccccc3)nc2-c2cccs2)cc1	5	-8	108	109
38	Cc1ccc(C(=O)NC(C)C(c2cccs2)N2CCCC2)s1 (stereo not drawn)	-3	·	105	107
41	CCCSC1=N/C(=C/c2cccs2)C(=O)N1c1ccc(F)c(Cl)c1	-1	-2	103	96
49	Cc1ccsc1C=Nc1ccc(Nc2ccccc2)cc1	·	11	103	107
54	CCc1cc2c(NCCN3CCCCC3)ncnc2s1	2	-33	104	102
56	CC1CCc2cc(F)ccc2N1C(=O)c1cccs1 (stereo not drawn)	-4	-30	102	102

The main list resumes, repeating the two entries before the break.
no.	smiles	Mtb MbtI inh	Mtb MenB inh	PV pol inh	PV pol inh intensity
59	NC(=O)CSc1nnc2scc(-c3ccc(Cl)cc3)n12	12	3	101	101
60	CC1CN(C(=O)C(C)Sc2nc(-c3ccccc3)cc(C(F)(F)F)n2)CC(C)O1 (stereo not drawn)	-17	-14	100	100
61	O=c1oc2ccccc2n1CN1CC=C(c2ccccc2)CC1	-20	5	104	106
62	CCOc1ccc(C2=NCCNC3=C2C(c2ccccc2)N(c2ccccc2)C3=O)cc1 (stereo not drawn)	-9	-20	103	104
63	CCC(=N)C1=C(O)CC(C)(C)CC1=O	5	-5	99	99
64	O=C(CC(Sc1ccccc1C(=O)O)c1ccc(F)cc1)c1ccc(F)cc1 (stereo not drawn)	-1	-13	98	100
65	Cc1c(/C=C/C(=O)Oc2ccc(C#N)cc2)sc2ccccc12	-5	-20	103	94
66	Cn1c(=O)cc(N2CCOCC2)c2c(=O)n(-c3ccccc3)c(=O)n(-c3ccccc3)c21	-5	-6	106	114
67	Cc1n[nH]c(=O)c2cc3ccccc3n12	-8	-24	104	103
68	COc1ccc(CNC(=O)C(C)C)cc1	-13	-23	103	103
69	CC(=O)Nc1ccc(S(=O)(=O)N[C@@H](C)C(=O)N(C)Cc2cccs2)cc1	0	-19	102	106
70	C/C(=N\NC(=O)C(C)C)c1cc(C)c(C)cc1C	-10	-29	101	107
71	CN(C)C(=O)N1CCNCC1	·	-3	111	109
72	CC1CCC(C(C)C)C(OC(=O)COC(=O)c2ccc(Br)o2)C1 (stereo not drawn)	-12	-20	100	101
73	O=C(COc1ccccc1C(=O)N1CCN(c2ccccc2O)CC1)Nc1ccc(Br)cc1	14	6	106	97
74	CCOc1ccccc1N1C(=O)CC(N(O)c2ccccc2)C1=O (stereo not drawn)	4	-11	102	105
75	Cc1cc(C)cc(NS(=O)(=O)N(C)C)c1	-21	-3	103	102
76	COc1cc(NC(=O)CCC2CCCC2)c(C(=O)N2CCN(C(C)=O)CC2)cc1OC	-30	-31	106	110
77	Cc1ccc(S(=O)(=O)N(C)C2CCCCC2)cc1-c1nnc2c3ccccc3c(C)nn12	6	-4	100	94
78	CCc1ccccc1Oc1ncccn1	1	8	102	106
79	CC(C)C1OCC2Cc3ccccc3C2O1 (stereo not drawn)	14	-63	104	100
80	CCOC(=O)c1ccc2c(c1)nc(COc1ccc(OC)cc1)n2CC	10	-15	98	101

no.	smiles	Mtb MbtI inh	Mtb MenB inh	PV pol inh	PV pol inh intensity
81	CC(C)(S)C(N)C(=O)O (stereo not drawn)	-22	3	101	102
82	COCc1cc(C)nc(Oc2ccccc2)c1C#N	-2	10	98	104
83	CCCCNC(=O)c1cn(CC)c2ccc(S(=O)(=O)N3CCCCCC3)cc2c1=O	-22	12	101	103
84	FC(F)(F)c1cc(-c2ccco2)nc(-n2nc(C(F)(F)F)cc2C2CC2)n1	-8	2	102	104
85	CC(=Nc1ccccc1)C1=C(O)CCCC1=O	3	0	103	100
86	CCN1/C(=C\C(=S)Nc2ccccc2)Sc2ccccc21	11	-135	106	111
87	CCOC(=O)c1c2nc3ccccc3nc2n2c1[nH]c(=O)c1c3c(sc12)CCCC3	-3	13	123	159
88	Cc1ccc2occ(CC(=O)Nc3ccc(F)cc3)c2c1	-11	-6	104	106
89	O=C(NCCc1ccc(Cl)cc1)C1CCN(S(=O)(=O)c2ccc3c(c2)OCCO3)CC1	0	-19	104	106
90	CCN(CC)C(=O)Cc1c(C(=O)O)[nH]c2ccc(Cl)cc12	28	4	99	105
91	C=CCNC(=O)C(C)Sc1ccc(Cl)cc1 (stereo not drawn)	26	-40	98	98
92	CCOc1ncccc1C(=O)Nc1c(C)cc(C)cc1Cl	5	-28	106	108
93	CCCn1c(-c2cccs2)n[nH]c1=O	12	-11	102	104
94	Fc1ccc(/C=N/N2CCOCC2)cc1	7	3	108	108
95	CS(=O)(=NS(=O)(=O)c1cccc2nonc12)c1ccccc1 (stereo not drawn)	2	9	101	102
96	O=C(CSc1nnc(-c2ccco2)n1CC1CCCO1)c1ccccc1 (stereo not drawn)	4	-13	100	102
97	O=C1c2ccccc2C(=O)N1c1ccccc1S(=O)C(F)(F)F (stereo not drawn)	1	-19	103	102
98	Cc1ccc(S(=O)(=O)N2CCCC2C(=O)O)cc1 (stereo not drawn)	-6	2	101	98
99	CCOC(=O)c1sc2cccc(F)c2c1CSc1nnc(SCc2ccc(C(=O)OC)o2)s1	22	-43	99	108
